KCNQ2 inh: KCNQ2 potassium channel inhibitors, primary screen, cell-based, CHO-K1, FluxOR thallium flux, B-score (AID 2156). B-score at 10 µM. 20 min; hits give low values; only compounds with negative scores are shown here; some inactives read as strong as hits. 310,000 tested, 1.1% active;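 active means fluorescence ratio B-score at most minus 3 library SDs, with starting brightness B-score within 2 library SDs, cut at about -5.5 in these data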
Target sequence (O88943 whole entry, looked up): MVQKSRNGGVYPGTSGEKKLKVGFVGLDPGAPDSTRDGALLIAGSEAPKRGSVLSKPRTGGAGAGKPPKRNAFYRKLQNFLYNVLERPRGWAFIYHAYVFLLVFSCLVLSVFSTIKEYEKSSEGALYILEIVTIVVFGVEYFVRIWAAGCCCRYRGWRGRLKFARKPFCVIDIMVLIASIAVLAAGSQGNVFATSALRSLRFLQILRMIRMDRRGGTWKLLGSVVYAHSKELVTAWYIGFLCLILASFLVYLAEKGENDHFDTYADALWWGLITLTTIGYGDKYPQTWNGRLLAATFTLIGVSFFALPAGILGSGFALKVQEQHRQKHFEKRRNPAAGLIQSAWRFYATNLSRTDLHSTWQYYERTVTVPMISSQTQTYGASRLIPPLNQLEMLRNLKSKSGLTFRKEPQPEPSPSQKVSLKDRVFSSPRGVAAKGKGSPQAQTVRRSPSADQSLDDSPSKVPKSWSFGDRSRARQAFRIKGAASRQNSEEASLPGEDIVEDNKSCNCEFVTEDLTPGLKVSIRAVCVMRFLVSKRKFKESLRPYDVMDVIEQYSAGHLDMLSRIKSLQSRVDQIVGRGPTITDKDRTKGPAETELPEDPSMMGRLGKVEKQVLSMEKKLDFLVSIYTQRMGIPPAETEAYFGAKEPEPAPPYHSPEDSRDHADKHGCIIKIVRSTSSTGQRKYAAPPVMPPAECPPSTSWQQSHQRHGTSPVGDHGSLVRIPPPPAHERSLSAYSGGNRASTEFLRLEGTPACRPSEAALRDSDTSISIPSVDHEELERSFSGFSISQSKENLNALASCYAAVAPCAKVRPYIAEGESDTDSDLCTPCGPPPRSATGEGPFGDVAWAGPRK
KCNQ2 inh baseline: recorded beside KCNQ2 inh, whose call it bears; B-score; measured here: initial fluorescence intensity artifact check;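 brightness before thallium and not channel activity; 0 = typical well and far values either way flag optical interference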
* hit, by the source's call; i = inactive. Only part of the results is shown; count on the stated rates, not on these rows.

SMILES	KCNQ2 inh	KCNQ2 inh baseline
O=c1[nH]c(CN2CCN(c3ccc([N+](=O)[O-])cc3)CC2)nc2ccsc12	i	0.17
COc1ccc(CCNC(=O)CSc2cccc3cccnc23)cc1OC	-6.3*	1.9*
CCCNC(=O)NC(C(=O)OC)C12CC3CC(CC(C3)C1)C2 (stereo not given)	i	-0.54
O=C(CN1CCOCC1)NCCc1ccccc1	i	0.3
Cc1noc(C)c1CSCC(=O)Nc1nc2ccc(F)cc2s1	i	-0.6
O=C(CSc1nnnn1C1CCCC1)NCCc1ccccc1	i	2.9
CCOC(=O)CCCNC(=O)COC(=O)c1cc2ccccc2cc1O	i	-1.4
CN1N=C(C(=O)N2CCCC(C(=O)c3cccc(C(F)(F)F)c3)C2)CCC1=O (stereo not given)	i	-0.02
O=[N+]([O-])c1ccc(-c2nn(-c3ccccc3)cc2/C=N/n2c(-c3ccncc3)n[nH]c2=S)cc1	i	-1.1
CCOC(=O)CN1C(=O)S/C(=C/c2ccc(C)o2)C1=O	i	-0.93
COc1ccc(S(=O)(=O)Nc2c(NC3CCCCC3)c3ccccc3oc2=O)cc1Cl	i	-0.19
O=C1C(Cc2ccccc2)C(c2ccccc2)N1c1ccccc1 (stereo not given)	i	1.8
COc1ccccc1C(=O)OCC(=O)Nc1ccc(Cl)cn1	i	2.4
CCC(C)NC(=O)/C=C/c1cccs1 (stereo not given)	i	0.18
CCOC(=O)CC(c1ccc([N+](=O)[O-])cc1)n1c(C)ccc1C (stereo not given)	i	-0.47
O=C(O)c1ccc(Cn2cnc3scc(-c4ccccc4)c3c2=O)cc1	i	0.04
CN(C)S(=O)(=O)c1cc(C(=O)NCc2ccccc2)c(Cl)cc1Cl	i	0.3
COc1ccc(C(=O)NC2CCN(C(=S)Nc3ccccc3C)CC2)cc1	i	-0.54
COc1ccc(S(=O)(=O)N(C(=O)C(C)C)c2ccc3oc(=O)sc3c2)cc1	i	0.36
O=C(Nc1ccccc1NC(=O)c1csnn1)c1csnn1	i	0.06
COCCCNC1=C(Cl)C(=O)c2ccccc2C1=O	i	-2.6
COc1cc(NC(=O)CSc2nc3ncnc(N)c3[nH]2)c(C(=O)O)cc1OC	i	0.03
O=S(=O)(Nc1ccn(-c2ccccc2)n1)c1ccc(Br)cc1	i	-0.01
CCCCN(C)S(=O)(=O)c1cc2c3c(c1)CCC(=O)N3CCC2	i	2.1
COCC1CCN(Cc2cn[nH]c2-c2cc(OC)c(OC)c(OC)c2)CC1	i	-0.13
O=C(O)C1=CCCNC1	i	-0.99
C=CCOC(=O)C1=C[C@@H](c2ccc(C(F)(F)F)cc2)C[C@@H](OCc2ccc(CO)cc2)O1	i	-0.44
Nc1nonc1-n1nnc(C(=O)N/N=C/c2ccccc2)c1CSc1ccccc1	i	1.5
Nc1nncn1C(=O)CCCN1C(=O)c2ccccc2C1=O	i	0.45
Cc1ccc(-c2cc(C(=O)NCc3cccs3)no2)cc1	i	3.4
O=C(COC(=O)CCC(=O)c1ccc(Cl)cc1)NCC1CCCO1 (stereo not given)	i	2.2
CC(C)CCN1C(=O)c2ccc(C(=O)Nc3ccccc3C(=O)O)cc2C1=O	i	2.8
Cc1cc(S(=O)(=O)NCc2ccccc2)ccc1OCC(=O)NCc1ccncc1	i	-0.24
O=P(c1ccccc1)(c1ccccc1)C(O)c1ccc(Br)cc1 (stereo not given)	i	-1.4
CC(C)(C)n1nc2c(c1NC(=O)COc1ccc(Cl)cc1)CS(=O)(=O)C2	i	1.3
Cc1[nH]c2ccccc2c1N=Nc1c(C)n(C)n(-c2ccccc2)c1=O	i	0.44
NS(=O)(=O)c1ccc(S(=O)(=O)c2ccccc2)nc1	i	0.01
Cc1ccc(C2=NN(CC(=O)NCCN(C)C)C(=O)CC2)cc1	i	2.4
COc1ccc(C(=O)N=S2CCN(C(=O)c3ccc(Cl)cc3)CC2)cc1	i	0.17
CC(OC(=O)c1cc(=O)[nH]c2ccccc12)C(=O)NC1CCCCC1C (stereo not given)	i	2.9
CCOc1cccc(OCCOc2ccc(C(=O)c3ccccc3)cc2)c1	i	0.07
Cc1cc(C)c2cc(C#N)c(SCC(=O)Nc3ccc4c(c3)OCO4)nc2c1	i	1.5
CCOc1cc(N2CCOCC2)c(OCC)cc1NC(=O)CN1C(=O)NC2(CCCCCCC2)C1=O	i	0.15
C=CCC1(CC=C)CCCN1C(=O)CC1C(=O)NCCN1Cc1cccc(OC)c1OC (stereo not given)	i	-0.52
O=C(O)c1ccc(Cl)c2c1C1C=CCC1C(c1ccccn1)N2 (stereo not given)	i	-1.1
Cn1c(C(=O)N2CCN(c3ccc(F)cc3)CC2)cc2ccccc21	i	-0.52
O=C(NCC(c1cccs1)N1CCOCC1)c1ccccc1NS(=O)(=O)c1ccc(Cl)c([N+](=O)[O-])c1 (stereo not given)	-6.2*	-1.1*
O=C(Nc1ccc(OC(F)F)c(Cl)c1)C(c1ccccc1)c1ccccc1	i	-2.5
COC(=O)CC1C(=O)NCCN1C(=O)CSc1nnnn1-c1ccc(OC)cc1 (stereo not given)	i	-0.04
O=[N+]([O-])c1ccccc1/C=N/NC1=NCCCCC1	i	-0.31
Cc1ccc(S(=O)(=O)Nc2cccc(Oc3cnccn3)c2)cc1	i	0.12
Cn1c(SCC(N)=O)nnc1-c1ccccc1	i	0.22
c1ccc(C(Cc2nc(-c3ccccn3)no2)c2ccccc2)cc1	i	1.1
COc1ccc(OS(=O)(=O)c2c(C)noc2C)cc1	i	0.13
Cc1nc(Sc2nnnn2-c2ccccc2)c(C#N)c(C)c1C	i	1.2
S=C(Nc1ccc(Cl)c(Cl)c1)N1CCOCC1	i	-0.08
Cc1cc(OC(=O)c2ccc(S(=O)(=O)N(C)C)cc2)c([N+](=O)[O-])c(=O)[nH]1	i	0.06
O=C(CCN1C(=O)C2CC=C(Cl)CC2C1=O)NCc1ccco1 (stereo not given)	i	1.1
C=C(C)c1cccc(C(C)(C)NC(=O)NCCCN2CCCC2=O)c1	i	0.19
COc1ccccc1NC(=O)CS(=O)(=O)c1cn(CC(=O)N2CCOCC2)c2ccccc12	i	0.36

Whole records from above:
Cc1cc(C)c2cc(C#N)c(SCC(=O)Nc3ccc4c(c3)OCO4)nc2c1 reads KCNQ2 inh = i; KCNQ2 inh baseline = 1.5
O=[N+]([O-])c1ccccc1/C=N/NC1=NCCCCC1 reads KCNQ2 inh = i; KCNQ2 inh baseline = -0.31
O=C(CCN1C(=O)C2CC=C(Cl)CC2C1=O)NCc1ccco1 (stereo not given) reads KCNQ2 inh = i; KCNQ2 inh baseline = 1.1

(next part)
SMILES	KCNQ2 inh	KCNQ2 inh baseline
CN(NC(=O)c1cccc(Cl)c1)c1nc(-c2ccccc2)nnc1C(F)(F)F	i	0.99
COc1ccccc1-c1noc(-c2ccccc2C(=O)Nc2ccccc2)n1	i	-0.33
Cc1ccccc1NC(=O)CSc1nnnn1C	i	-0.39
COc1ccc(CNC(=O)CC23CC4CC(CC(C4)C2)C3)cc1	i	0.37
COc1cccc(OCc2nnc(SCC(=O)OC3CCCCC3)n2C)c1	i	-3.6
Cc1ccc(C(=O)O)c(C(=O)Nc2nc3ccccc3s2)c1	i	0.57
O=S(=O)(c1ccccc1)N1CCN(c2cccc(Cl)c2)CC1	i	2
Cn1nnc(NC(=S)NC(=O)Cc2ccccc2)n1	i	-0.86
CCCC(c1nnnn1Cc1ccco1)N1CCN(C(=O)c2ccco2)CC1 (stereo not given)	i	0.39
CC1CCCC(NC(=O)COC(=O)c2cc(S(=O)(=O)N3CCCCC3)ccc2N2CCOCC2)C1C (stereo not given)	i	-0.52
CCn1c(SCC(=O)Nc2ccc(OC)cc2)nc2c1c(=O)n(C)c(=O)n2C	i	-0.69
CC(=O)c1ccc(OCc2cc(C(=O)N3CCC(Oc4ccccc4C)CC3)no2)cc1	i	-0.36
COc1ccc(-c2cc(C(F)(F)F)c3c(=O)n(-c4ccccc4)[nH]c3n2)cc1	i	0.23
Cc1ccc2nc(SCC(=O)Nc3cccc(F)c3)nc(=O)n2c1	i	-1.2
Cc1n[nH]c(=S)n1/N=C/c1ccc(-c2ccc(Cl)cc2)o1	i	0.31
CN(Cc1ccccc1)C(=O)c1ccc2c(c1)OCCO2	i	-0.68
COc1ccc(N2C(=O)c3cccc4cccc(c34)C2=O)nn1	i	0.46
COc1ccc(/C=C(/NC(=O)c2ccccc2)C(=O)N2CCCC2)cc1	i	1.2
O=C(O)c1cc(S(=O)(=O)N2CCCC2)ccc1Br	i	2.8
COc1ccc(/C=C/C(=O)NCC(=O)N/N=C/c2cccnc2)cc1	i	-0.13

3 successive compounds already listed:
SMILES	KCNQ2 inh	KCNQ2 inh baseline
O=c1[nH]c(CN2CCN(c3ccc([N+](=O)[O-])cc3)CC2)nc2ccsc12	i	0.17
COc1ccc(CCNC(=O)CSc2cccc3cccnc23)cc1OC	-6.3*	1.9*
CCCNC(=O)NC(C(=O)OC)C12CC3CC(CC(C3)C1)C2 (stereo not given)	i	-0.54

(more compounds)
SMILES	KCNQ2 inh	KCNQ2 inh baseline
CC(C)CN(C(=O)COC(=O)c1cc2ccccc2oc1=O)C1CCS(=O)(=O)C1 (stereo not given)	i	0.9
O=C(c1ccc2ccccc2c1)N1CCN(c2ccccc2)CC1	-5.6*	1.4*
O=c1c2ccccc2oc2cc(-c3ccc4[nH]ccc4c3)ccc12	i	-0.78
O=C1c2ccccc2C(=O)N1C1CCCCC1	i	0.3
O=C(/C=C/c1cccc([N+](=O)[O-])c1)NCCSCc1ccccc1Cl	i	-0.06
COCCCNC(=O)CSc1nc2ccccc2c(=O)n1CCC(=O)NCCc1ccc(OC)c(OC)c1	i	-0.55
C[C@H](NC(=O)N1CCn2c1nc1ccccc12)C(=O)NCc1ccc2c(c1)OCO2	i	0.03
COC(=O)c1ccc(CNC(=O)c2coc3ccccc3c2=O)cc1	i	-0.71
COc1ccccc1N1CCN(C(c2cccs2)C(C)NC(=O)c2ccco2)CC1 (stereo not given)	i	0.6
Cc1ccccc1-c1nc2ccc(Cl)cc2c(=O)n1O	i	1.7
C=CCNC(=O)CCCOc1cccc(C)c1	i	-0.2
COc1ccc(C(=O)NCc2nnc(SCC(=O)N3CCc4ccccc43)n2CCc2ccccc2)cc1	i	0.49
CCn1c(CSCc2ccc(F)cc2)nnc1SCC(=O)NCc1ccccc1	i	0.75
O=C(NC(=S)Nc1ccc(N2CCOCC2)c(Cl)c1)c1cccs1	i	0.64
CC(C)(C)OC(=O)NCCCC[C@H](NC(=O)c1nc[nH]c1C(=O)N1CCN(c2ccccc2)CC1)C(=O)OC(C)(C)C	i	-0.46
COc1ccc(-c2cc(C(F)(F)F)n3nc(C(=O)NCc4ccco4)cc3n2)cc1	i	-0.15
Cc1cc(N2CCOCC2)nc2ccc(NC(=O)CCC(=O)N3CCCCC3)cc12	i	1.5
CCOc1cc2[nH]c(=S)n(C3CC3)c(=O)c2cc1OCC	i	-1.1
Cc1nn(-c2cc(N3CCCC3)ccc2[N+](=O)[O-])c(=O)c2ccccc12	i	-0.5
Cc1nc(NC(=O)COC(=O)c2ccc(S(=O)(=O)N3CCc4ccccc4C3)cc2)c(Cl)cc1Cl	i	0.31
O=C(CSc1nc2ccc(Cl)cc2[nH]1)NC1CCCc2ccccc21 (stereo not given)	i	-0.27
CC(C)Cc1nnc(NC(=O)c2ccncc2)s1	i	-2.3
CCOC(=O)CC1(NC(=O)c2cc(COc3cccc(OC)c3)on2)CCCCC1	-7*	1.7*
C/C=C/c1ccc(OCCCNC)c(OC)c1	i	-0.54
O=C(NC(=S)Nc1ccc(Cl)c(C(=O)O)c1)c1cncc(Br)c1	i	-0.92
CCN(Cc1ccccc1)S(=O)(=O)c1ccc(C(=O)Nc2nnc(C)o2)cc1	i	-0.06
CNC(=O)c1ncoc1-c1ccc(Cl)cc1	i	-1.3
CCCCN(C)CCCNC(=O)c1cn(CC)c2ccc(S(=O)(=O)N3CCOCC3)cc2c1=O	i	0.05
CNc1nc2[nH]c(=O)c3c(c2s1)OC(N)=C(C#N)C3c1cccc(F)c1 (stereo not given)	i	0.86
Cc1ccc(NC(=O)CN(C)Cc2nc3ccccc3c(=O)[nH]2)c(Br)c1	i	2.9
Nn1c(SCc2cc([N+](=O)[O-])cc3c2OCOC3)nnc1-c1ccccn1	i	0.16
O=C(NNS(=O)(=O)c1ccccc1)c1ccncc1	i	0.82
CCc1ccccc1OCCCN1CCCC1	i	-0.83
CCOC(=O)C1CCN(c2nc(-c3ccc(C)cc3)nc3ccccc23)CC1	i	-0.31
Cc1onc(-c2ccccc2)c1C(=O)NC(=S)NNC(=O)c1ccco1	i	-0.03
CCOC(=O)Cc1csc(/N=C/c2c(O)n(-c3ccc(C)cc3C)c(=O)c3ccccc23)n1	i	2
O=c1cc(CSc2nc3cc(Cl)ccc3o2)nc2sccn12	i	-2.2
O=C(NCCn1ccc2ccccc21)C1CCCCC1	i	0.1
CCOC(=O)c1sc(C)c(C(=O)NC2CCCCC2)c1N	i	0.67
CNC(=O)CSc1nnc(-c2cccnc2)n1-c1ccc(C)cc1	i	-0.12

3 entries from above, bar-delimited:
Compound | KCNQ2 inh | KCNQ2 inh baseline
Cn1nnc(NC(=S)NC(=O)Cc2ccccc2)n1 | i | -0.86
CCCC(c1nnnn1Cc1ccco1)N1CCN(C(=O)c2ccco2)CC1 (stereo not given) | i | 0.39
CC1CCCC(NC(=O)COC(=O)c2cc(S(=O)(=O)N3CCCCC3)ccc2N2CCOCC2)C1C (stereo not given) | i | -0.52

(listing goes on)
SMILES	KCNQ2 inh	KCNQ2 inh baseline
CCCCCCNC(=O)c1c(O)c2ccccc2[nH]c1=O	i	-0.03
O=c1[nH]c2ccc(Cl)cc2c(O)c1-c1ccccc1	i	-0.13
COc1ccc(N)cc1-n1cnnn1	i	-0.07
CSc1ccc(CN(C)C(=O)c2cccc(S(=O)(=O)NCc3ccccc3)c2)cc1	i	-1.2
COc1ccc(CN2C(=O)/C(=C/c3ccncc3)SC2=S)cc1	i	-0.23
